eIF4H inh – inhibitors of RNA binding by human eIF4H; eIF4H fluorescence polarization binding assay; inhibition, % at 35 µM; actives 0.94% (n = 290,000);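 active = 50% or more with normal probe brightness, or confirmed in later tests; inconclusive = above 50% with abnormal brightness, or retests that disagree; inactive = below 50% or failed in later tests; about a fifth of its hits are not listed in these tables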;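 note: calls also rest on retests at 20 µM and on dose response follow-up; 0% = protein and probe with vehicle and 100% = probe without protein; strong numbers were not always called active; many hits fall short of the cut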
CSC inhib – blocks cancer stem cells; AID 2717; cancer stem cell-like cells viability, luminescence; inhibition, % at 7.5 µM; actives 1.1% (n = 300,000);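 active = mean at 75% or more and at least half the replicates too; inconclusive = mean and replicates disagree; tested in HMLE shEcad cells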;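 note: 0% = median of negative and 100% = median of positive control wells; the first replicate is given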
PABP FP inh – blocks human PABP binding to poly(A) RNA; P11940; fluorescence polarization; inhibition, % at 35 µM; actives 1% (n = 290,000); AID 2014;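 active = 50% or more with normal probe brightness, or confirmed in later tests; inconclusive = above 50% with abnormal brightness, or retests that disagree; inactive = below 50% or failed in later tests; about a fifth of its hits are not listed in these tables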;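 note: calls also rest on retests at 20 µM and on dose response follow-up; controls were probe without protein and protein plus probe with vehicle; some compounds called inactive have numbers as strong as hits; many hits fall short of the cut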
Target sequence (P11940 whole entry, looked up): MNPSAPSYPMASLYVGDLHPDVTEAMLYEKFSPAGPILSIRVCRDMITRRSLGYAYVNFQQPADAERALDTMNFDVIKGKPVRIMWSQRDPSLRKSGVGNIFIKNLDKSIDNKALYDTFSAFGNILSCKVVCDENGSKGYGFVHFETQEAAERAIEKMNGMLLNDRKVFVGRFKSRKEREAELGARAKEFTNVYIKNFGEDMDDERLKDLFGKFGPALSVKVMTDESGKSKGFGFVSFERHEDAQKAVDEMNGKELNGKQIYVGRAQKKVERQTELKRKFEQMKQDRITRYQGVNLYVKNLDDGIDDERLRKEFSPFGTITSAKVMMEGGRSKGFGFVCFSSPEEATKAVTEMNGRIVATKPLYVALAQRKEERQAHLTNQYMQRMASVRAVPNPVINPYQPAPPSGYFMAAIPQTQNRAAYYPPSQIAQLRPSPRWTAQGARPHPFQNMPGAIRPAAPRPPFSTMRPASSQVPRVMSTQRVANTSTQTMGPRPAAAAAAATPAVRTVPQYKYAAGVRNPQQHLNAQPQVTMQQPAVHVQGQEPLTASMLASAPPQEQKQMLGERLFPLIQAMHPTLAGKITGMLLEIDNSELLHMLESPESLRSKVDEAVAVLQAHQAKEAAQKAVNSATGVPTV
Rce1 inhib – yeast Ras-converting enzyme inhibition | Q03530 | yeast membranes, quenched prenylated peptide cleavage fluorescence | calls only | actives 0.27% (n = 290,000) | AID 2563;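 active = fall in fluorescence gain of 50% or more versus controls, with final raw signal at or below 3038400; inconclusive = same 50% fall but final raw signal above 3038400; inactive = fall in fluorescence gain under 50%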;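 note: plate controls were neutral control wells for no effect and wells lacking membranes for full effect; tested at 10 µM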
Yeast UUG start – yeast start codon fidelity modulation | S. cerevisiae UUG-firefly luciferase reporter, luminescence/redox ratio | activity score, % at 18.7 µM | actives 0.13% (n = 350,000) | AID 602363;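 active = replicate mean at a twofold rise or more, about +100% in these data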;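 note: firefly luciferase made from a UUG start codon reports start codon fidelity; reporter light over untreated wells divided by growth signal over untreated wells; some hits fall short of that in this replicate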
MT1-MMP act inh – MT1-MMP (human) activation inhibition. actives 0.061% (n = 360,000). HT1080 RFP-PRO-GFP cells, GFP/RFP ratio fluorescence, overnight; percent of plate control window, DMSO zero. GFP/RFP ratio change, % at 20 µM. P50281;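 active = GFP/RFP ratio change of at least 30% with cell ATP level not reduced by more than half and red fluorescence within 50% of control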; note: strong numbers were not always called active
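system = RFP-PRO-GFP reporter HT1080 cells | dosing = 20 µM single dose, 1% DMSO | timing = overnight cell settling, then overnight compound exposure, 37 °C, 5% CO2 | read-out basis = GFP/RFP fluorescence ratio | controls = DMSO and RFP-L50D-GFP cell wells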
HIV Env fusion – HIV envelope-mediated fusion inhibition. inhibition, % at 12.3 µM. AID 651610. HeLa-JRFL Env/CEM21 cell fusion, luciferase. actives 1.1% (n = 360,000);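 active = mean replicate inhibition score of at least 50 and every replicate individually at or above 50; inconclusive = only one of the two criteria met; inactive = mean below 50 and not all replicates reaching 50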;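 note: 0% = plate neutral controls and 100% = maraviroc near 300 nM; one replicate is shown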
eIF4H inh retest – recorded beside eIF4H inh, whose call it bears; inhibition, %; compound at 20 µM; confirmation average;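 mean of two retest wells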
PABP FP inh retest – also measured in PABP FP inh; calls as there; inhibition, %; compound at 20 µM; confirmation repeats;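 mean of two retest wells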
MT1-MMP act inh RFP – further read-out of MT1-MMP act inh, marked with its call; RFP signal change, %; measured here: RFP expression control read;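 0 = vehicle wells; hits needed this value within 50% of zero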
Active calls of the source: *; i = inactive; u = inconclusive; x = not tested or not shown; + = active, no number; & = joins results of further samples.

A first look:
SMILES | eIF4H inh | CSC inhib | PABP FP inh | Rce1 inhib | Yeast UUG start | MT1-MMP act inh | MT1-MMP act inh RFP | HIV Env fusion | others
O=C(CSc1nccn1Cc1ccccc1)Nc1ccccc1 | -2.0 | 4.5 | 2.9 | i | -15.9 | -1.8 | 1.2 | -46.9
Cc1ccccc1OCC(=O)OCC(=O)Nc1cc(S(=O)(=O)N2CCCCC2)ccc1Cl | x | -0.8 | x | i | x | 8.4 | 4.7 | -18.0
CC1=NCCN1S(=O)(=O)c1cc([N+](=O)[O-])ccc1Cl | -4.8 | -1.2 | 5.9 | i | x | -3.8 | -0.8 | -11.8
COc1ccc(N=Nc2c(-c3ccc(OC)cc3)[nH]oc2=O)cc1 | u | -10.0 | u | i | -16.2 | 4.3 | -3.4 | 6.2

The list itself, from the start:
SMILES | eIF4H inh | CSC inhib | PABP FP inh | Rce1 inhib | Yeast UUG start | MT1-MMP act inh | MT1-MMP act inh RFP | HIV Env fusion | others
O=C(CSc1nccn1Cc1ccccc1)Nc1ccccc1 | -2.0 | 4.5 | 2.9 | i | -15.9 | -1.8 | 1.2 | -46.9
Cc1ccccc1OCC(=O)OCC(=O)Nc1cc(S(=O)(=O)N2CCCCC2)ccc1Cl | x | -0.8 | x | i | x | 8.4 | 4.7 | -18.0
CC1=NCCN1S(=O)(=O)c1cc([N+](=O)[O-])ccc1Cl | -4.8 | -1.2 | 5.9 | i | x | -3.8 | -0.8 | -11.8
COc1ccc(N=Nc2c(-c3ccc(OC)cc3)[nH]oc2=O)cc1 | u | -10.0 | u | i | -16.2 | 4.3 | -3.4 | 6.2
O=C(CS(=O)c1cccc(C(F)(F)F)c1)Nc1ccc(Cl)cc1Cl (centres undefined) | 7.9 | x | 3.5 | i | 7.4 | 1.2 | -4.0 | -0.3
CN1CCc2c(sc(NC(=O)Cc3ccc(F)cc3)c2C(N)=O)C1 | x | -6.0 | x | i | -1.9 | -0.5 | 0.5 | 16.8
Cc1ccc(S(=O)(=O)N(CC(=O)N/N=C/c2ccco2)c2cc(Cl)cc(Cl)c2)cc1 | 52.5 | 24.5 | 5.8 | i | 7.1 | -2.1 | -12.4 | -12.5 | eIF4H inh retest=-5.0;PABP FP inh retest=6.8
Cc1nc2ccccn2c1C(=O)NNS(=O)(=O)c1ccc(C(C)(C)C)cc1 | -5.2 | -9.7 | -4.7 | i | x | -2.5 | -24.6 | 72.1*
O=c1c(Cl)c(N2CCN(c3ccc(F)cc3)CC2)cnn1-c1nc2ccccc2s1 | 4.6 | 1.4 | 20.6 | i | x | 7.7 | 2.8 | -35.4
CCOC(=O)N1CCN(C(c2ccc(C)cc2)c2sc3nc(C)nn3c2O)CC1 (centres undefined) | -3.9 | 2.1 | 11.9 | i | -17.9 | 2.3 | -3.8 | -11.4
CC(C(=O)Nc1ccc(S(=O)(=O)N2CCCC2)cc1)N1CCN(c2ccccc2O)CC1 (centres undefined) | x | 4.2 | x | x | -3.4 | 5.8 | -2.9 | x
Cc1noc(C)c1CCC(=O)N1CCCC(CO)(Cc2ccccc2)C1 (centres undefined) | -7.8 | -3.9 | 2.9 | i | -2.2 | -0.2 | -1.0 | -60.9
CC[C@H](C)[C@@H](C(=O)N1CCNCC1)n1cc([C@@H](N)CC(C)C)nn1 | -12.2 | -4.4 | 2.7 | i | 12.7 | 6.6 | 6.6 | -11.2
COc1ccc(CN2C(=O)c3ccccc3C2OC)cc1 (centres undefined) | 2.5 | -3.5 | -1.0 | i | 5.8 | -5.5 | 0.0 | -3.2
CCOC(=O)c1sc(NC(=O)CSc2n[nH]c(-c3ccccc3)n2)c(C#N)c1C | 3.8 | 44.3 | 2.1 | i | 0.1 | -4.9 | -32.6 | x
Cc1ccc(F)c([C@H]2[C@H]3C=CC[C@@H](C)[C@@H]3C(=O)N2Cc2ccccc2)c1 | -5.6 | 13.0 | -14.1 | i | 3.7 | -11.2 | -5.0 | 11.9
O=C1CCCC2=C1C(c1ccccc1)n1c(s/c(=C/c3cccc(F)c3)c1=O)=N2 (centres undefined) | 10.6 | 21.3 | 5.4 | i | -17.8 | -2.5 | -7.1 | -102.6
CN(C(=O)c1cccc(NC(=O)Cc2ccc(NC(=O)C3CCN(C(=O)C4CCCCC4)CC3)cc2)c1)C1CCCC1 | x | x | x | x | -14.0 | -1.2 | -2.4 | -2.8
Cc1ccccc1NC(=S)N(CCN1CCCCCC1)Cc1cccs1 | 5.3 | -10.9 | 8.6 | x | x | -1.2 | -3.1 | -17.9
O=C(O)c1ccc(NC(=O)c2cn(-c3ccccc3)nc2-c2ccc(F)cc2)cc1 | 14.4 | -4.8 | 2.7 | i | -17.1 | 11.4 | -3.2 | -125.9
CC(=O)Nc1ccc(C(=O)CSc2nnc(Cn3nnc4ccccc43)n2C)cc1 | 1.6 | -0.3 | 3.2 | x | -19.3 | 4.0 | 0.4 | x
CN(C)CCN(Cc1ccccc1)S(=O)(=O)c1ccc(-c2ccc(=O)[nH]n2)s1 | 0.5 | 22.4 | -9.5 | i | 0.7 | -0.2 | 2.8 | 3.2
Cc1c(N=Cc2c(O)n(Cc3ccco3)c(=O)c3ccccc23)c(=O)n(-c2ccccc2)n1C | -0.4&-3.2 | 1.4 | -0.1&1.5 | i | -8.2 | -6.2 | -4.9 | x
Clc1ccc(-c2nn3c(-c4ccccc4)nnc3s2)cc1 | -2.9 | -0.9 | 4.5 | i | -4.1 | 4.4 | 2.3 | -1.4
Cc1ccc(-n2nnnc2CNC(=O)C2CC(=O)N(c3ccc(F)cc3)C2)cc1C (centres undefined) | x | -11.3 | x | i | -1.3 | 0.1 | -0.8 | 4.2
(further entries)
SMILES | eIF4H inh | CSC inhib | PABP FP inh | Rce1 inhib | Yeast UUG start | MT1-MMP act inh | MT1-MMP act inh RFP | HIV Env fusion | others
O=C(Nc1ccc(N2CCOCC2)cc1)c1cccc2c(Br)cccc12 | -3.2 | 16.1 | 4.1 | i | -10.7 | 1.6 | 0.9 | -0.4
Cc1ccc(CNC(=O)c2cc(-c3ccccc3)nn2CC2CC(c3cccc([N+](=O)[O-])c3)=NO2)cc1 (centres undefined) | x | -2.8 | x | + | -24.8 | 1.0 | 0.3 | 15.4
Cc1ccc(NC(=O)Nc2ccc(Cl)cc2)c(Br)c1 | -2.5 | 7.0 | -0.7 | i | x | -2.9 | -4.5 | u
CCOC(=O)CC(=O)CSc1nc(-c2cccnc2)ccc1C#N | 68.6* | 7.0 | 77.3* | i | -17.3 | -11.5 | -1.4 | x
COc1ccc(C(=O)NC(Oc2ccccc2)C(Cl)(Cl)Cl)cc1 (centres undefined) | 1.6 | x | 7.7 | i | -13.4 | 0.0 | 1.3 | -14.1
Cc1nn(S(=O)(=O)c2ccc(Br)cc2)c(C)c1S(=O)(=O)N1CCOCC1 | -7.1 | -14.9 | 7.1 | i | -16.6 | -1.1 | 4.6 | 1.3
CC(C)c1ccc(O)c(N)c1 | -1.7 | -4.9 | 5.4 | i | -13.7 | -1.2 | -0.2 | 0.1
OCCNCC12CC3CC(CC(C3)C1)C2 | 2.9 | -5.8 | 5.9 | i | x | 3.0 | -1.4 | -19.4
Cc1occc1C(=O)N1CCN(S(=O)(=O)c2ccc(F)cc2)CC1 | x | -12.8 | x | x | -13.2 | -2.4 | 1.6 | x
COc1ccc(NC(=O)Cn2nnc(-c3ccccc3NS(=O)(=O)c3ccccc3)n2)cc1 | 1.1 | 13.3 | 3.7 | i | -0.6 | -7.7 | -26.1 | x
COc1ccc2[nH]c(=O)c(CN(CC3CCCO3)S(=O)(=O)c3ccccc3F)cc2c1 (centres undefined) | 4.2 | -7.4 | 8.4 | i | -1.4 | 3.8 | -4.0 | 1.3
Cc1nnc(SCC(=O)Nc2ccccc2)[nH]c1=O | -1.1 | -14.1 | 6.1 | i | -14.5 | 4.3 | 2.7 | x
O=C(Nc1ccc2c(c1)CCC2)Nc1ccc2c(c1)OCO2 | 4.8 | 4.4 | -8.2 | i | 7.0 | -2.4 | -1.5 | -14.7
O=C(Nc1cccc(C(=O)N2CCCC2)c1)C1CCCCC1 | x | x | x | x | -12.4 | 2.9 | 5.9 | -22.7
CCOC(=O)c1ccc(S(=O)(=O)N2CCC(C(=O)NCC3COc4ccccc4O3)CC2)cc1 (centres undefined) | x | x | x | x | -13.6 | 5.0 | 6.7 | -35.5
Cc1ccc(S(=O)(=O)N[C@H](C(=O)NC2CCC(C)CC2)C(C)C)cc1 (some centres undefined) | x | -9.9 | x | x | -3.3 | -0.2 | 1.5 | 11.0
O=C(CN(Cc1ccccc1)C(=O)c1csnn1)NCc1ccccc1 | -8.5 | -3.0 | -3.0 | i | -4.3 | -8.4 | -5.4 | -6.5
CCOc1ccccc1NC(=O)C1CCCN(S(=O)(=O)c2ccc3c(c2)CCCN3C(C)=O)C1 (centres undefined) | x | x | x | x | -7.8 | -4.6 | -11.5 | 14.5
COc1ccccc1N(Cc1ccccc1)S(=O)(=O)c1cccc(C(=O)NC2CC(C)(C)NC(C)(C)C2)c1 | x | 17.3 | x | i | x | 3.3 | -1.6 | -1.4
CC(C)(C)OC(=O)N1CCCC(C(=O)CC#N)C1 (centres undefined) | -7.3 | 26.8 | -6.5 | i | -6.7 | -14.2 | 2.9 | -20.5
O=C(N(c1ccccc1)c1ccccc1)N(c1ccccc1)c1ccccc1 | -9.6 | 10.8 | 6.9 | i | -26.2 | -8.7 | -6.7 | 26.9
O=C(NNC1=NS(=O)(=O)c2ccccc21)c1ccc(Cl)cc1 | 4.4 | -22.3 | 4.6 | i | x | -1.1 | 0.8 | -17.7
O=C(CN1CCCC1)Nc1ccc(Br)cc1[N+](=O)[O-] | -1.2 | x | 11.9 | i | -0.9 | 0.2 | 0.9 | 13.8
Cc1cc(C)c(S(=O)(=O)Nc2ccc(Cl)cn2)c(C)c1 | 0.4 | -1.2 | 3.2 | i | -19.4 | -0.4 | -1.4 | 25.4
O=C(Nc1cccc(C(F)(F)F)c1)c1ccc2sc([C@H]3C[C@H](O)[C@@H](CO)O3)nc2c1 | x | x | x | x | -18.0 | 1.5 | -25.8 | 26.4
Continuation.
SMILES | eIF4H inh | CSC inhib | PABP FP inh | Rce1 inhib | Yeast UUG start | MT1-MMP act inh | MT1-MMP act inh RFP | HIV Env fusion | others
O=C(Nc1ncc(Cc2cccc(C(F)(F)F)c2)s1)C1CCCO1 (centres undefined) | 3.3 | 16.7 | 0.8 | i | -4.1 | 0.6 | -6.9 | 14.3
Cc1cc(=O)n2nc(N3CCC(C(=O)NCc4cccc(Br)c4)CC3)sc2n1 | -4.1 | 4.5 | 8.1 | i | -3.3 | 2.3 | -0.5 | -5.9
CC1=C(C(=O)N(C(C)C)C(C)C)CC(CC(=O)NC(c2ccccc2)c2ccccc2)C(=O)N1Cc1ccc(F)cc1 (centres undefined) | x | x | x | x | -2.4 | -3.4 | -3.0 | -15.7
COc1ccc(/C=N/Nc2nc3ccccc3o2)cc1O | 1.3 | 15.4 | 12.6 | i | -18.7 | 1.6 | -0.8 | -292.5
CCCNC(=O)C1CC2Cn3c(nc4ccccc43)C2N1C (centres undefined) | x | -12.0 | x | i | 24.5 | 2.5 | 2.4 | -6.3
Cc1cccc(-c2noc(-c3csc([C@@H]4C[C@H](O)[C@@H](CO)O4)n3)n2)c1 | x | x | x | x | -10.7 | 2.0 | 1.1 | -109.4
C/C=C\C=C\C(=O)N1CC2(CC(c3cccc(NC(=O)CC)c3)=NO2)C[C@H]1C(N)=O (some centres undefined) | 9.0 | -12.7 | 20.0 | i | -22.8 | -5.5 | 4.4 | 1.6

Compound activity: PubChem, several laboratories

A portion of the library; count on the stated rates, not on these rows.
